Screening data from PubChem BioAssay.
Vif A3G = inhibitors of Vif binding to APOBEC3G peptide, primary screen, biochemical, TR-FRET, GST-Vif 1-94, biotin-A3G peptide, dose response retest (AID 1117319); inhibition, %, or IC50 in µM where a hit was titrated; TR-FRET GST-Vif / biotin-A3G peptide binding; higher % means a stronger effect; test concentration not given here; strong numbers were not always called active; 260,000 compounds, 0.57% hits;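 active means above the screen mean plus three standard deviations and confirmed in dose response; inconclusive means results disagree or hit not tested in dose response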;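 further: Vif residues 1-94 fused to GST binding biotinylated APOBEC3G peptide 110-148; 0% = full assay without inhibitor and 100% = GST in place of GST-Vif; retest series ran down from 100 µM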
MLL AF4-AF9 inh = MLL-AF4/AF9 protein interaction inhibition; P42568; 350,000 compounds, 0.47% hits; AlphaScreen, biotin-AF4 peptide binding to FLAG-AF9; AID 651704; inhibition, % at 10 µM;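 active means every replicate reaching a set inhibition limit, whatever the replicate mean, cut at about 25% in these data; inconclusive means mean inhibition reaches that limit but some replicates miss it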;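 further: 0% = plate neutral control median and 100% = total signal loss; the record names both 10 and 1 µM as test concentration; the first replicate is given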
UCH37 inh = blocks the human deubiquitinase UCH37. Q9Y5K5. purified proteasome/UCH37, Ub-AMC cleavage fluorescence. inhibition, % (test concentration not listed). 330,000 compounds, 0.33% hits;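 active means mean of two replicates above 20%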;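 further: 0% = compound-free wells with enzyme and 100% = wells lacking proteasome; stock transfer was 100 nL into about 20 µL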
Target sequence (Q9Y5K5 whole entry, looked up): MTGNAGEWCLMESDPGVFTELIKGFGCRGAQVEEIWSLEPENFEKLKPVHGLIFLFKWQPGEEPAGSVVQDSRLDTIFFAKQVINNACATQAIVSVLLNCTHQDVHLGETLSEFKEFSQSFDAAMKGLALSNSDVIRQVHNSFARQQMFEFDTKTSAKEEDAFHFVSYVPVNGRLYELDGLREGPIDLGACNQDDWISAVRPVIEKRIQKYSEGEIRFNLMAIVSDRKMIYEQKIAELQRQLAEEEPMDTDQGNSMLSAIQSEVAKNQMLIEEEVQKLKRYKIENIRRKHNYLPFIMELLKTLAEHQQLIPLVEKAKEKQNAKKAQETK
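Assay system: Proteasome-bound UCH37. Buffer or medium: pH 7.4 Tris-HCl (50 mM) with ovalbumin, ATP-MgCl2, DTT. Incubation: 30 min preincubation with enzyme, 25 min cleavage at room temperature. Measured by: fluorescence, ex 355 nm, em 460 nm. Read-out basis: percent inhibition. Control set: wells without proteasome as full block, compound-free enzyme plus substrate as uninhibited.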
HNF4A DNA FP = change in binding of human HNF4 alpha to DNA; P41235; HNF4a-FITC DNA binding, fluorescence polarization, 1 h; activity change, % at 10 µM; 360,000 compounds, 0.3% hits; in the data active means activity change above about 30%, passing the limit was not always enough;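 further: controls were the assay level and a saturating level of protein; the project sought stronger binding though the title names inhibitors; some compounds called inactive have numbers as strong as hits; positive values seem to mean higher polarization but the record does not say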
Target sequence (P41235 whole entry, looked up): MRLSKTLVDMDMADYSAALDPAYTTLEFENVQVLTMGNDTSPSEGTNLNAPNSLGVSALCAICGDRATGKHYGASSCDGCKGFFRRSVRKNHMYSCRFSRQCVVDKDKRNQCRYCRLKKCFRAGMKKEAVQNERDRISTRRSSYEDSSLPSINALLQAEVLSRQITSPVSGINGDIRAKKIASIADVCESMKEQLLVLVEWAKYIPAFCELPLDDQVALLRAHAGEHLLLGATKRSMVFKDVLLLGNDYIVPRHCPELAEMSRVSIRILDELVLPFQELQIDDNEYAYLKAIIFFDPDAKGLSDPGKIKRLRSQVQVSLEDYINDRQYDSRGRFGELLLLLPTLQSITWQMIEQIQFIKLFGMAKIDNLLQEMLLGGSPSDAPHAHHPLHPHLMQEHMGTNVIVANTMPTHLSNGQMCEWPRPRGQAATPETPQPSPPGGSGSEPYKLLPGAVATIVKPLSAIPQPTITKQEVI
FGF22 binding = FGF22 (human) thermal shift binding. Q9HCT0. recombinant FGF22 thermal shift, SYPRO orange fluorescence; percent of sucrose octasulfate shift, DMSO zero. calls only at 9.99 µM. 340,000 compounds, 1.5% hits;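 active means melting point raised past a set limit in the mean and every replicate; inconclusive means no clear call; three in four hits are not shown here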
Target sequence (Q9HCT0 whole entry, looked up): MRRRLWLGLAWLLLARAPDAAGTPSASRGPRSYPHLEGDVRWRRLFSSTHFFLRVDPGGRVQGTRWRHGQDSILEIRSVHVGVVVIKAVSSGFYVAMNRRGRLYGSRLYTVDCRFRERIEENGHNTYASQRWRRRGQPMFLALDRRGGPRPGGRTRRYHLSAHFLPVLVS
RanGTP-Impb inh = inhibitors of RanGTP-importin-beta interaction, primary screen, biochemical, FRET, CFP-Ran, YFP-importin-beta, homogeneous | cell-free CFP-Ran/YFP-importin-beta FRET ratio | inhibition, % (no concentration beside the values) | 300,000 compounds, 1.1% hits;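 active means most replicates above 15%; inconclusive means exactly half above 15%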;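 further: 0% = DMSO wells and 100% = Ran loaded with GDP instead of GTP; wells of about 40 µL received 100 nL stock; the first replicate is given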
E coli growth = E. coli growth inhibition. 330,000 compounds, 0.21% hits. AID 1053175. OD600 absorbance (test concentration not listed). Escherichia coli growth, OD600, 23 h; stronger effect = lower value;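 active means OD600 absorbance below the run mean of sample wells minus 3.6 SD, in any replicate, cut at about 0.56 in these data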;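 further: stock transfer was 300 nL into about 60 µL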
* = called active by the depositor; i = inactive; ? = inconclusive; . = not tested or not shown; & = joins results of further samples.

SMILES,Vif A3G,MLL AF4-AF9 inh,UCH37 inh,HNF4A DNA FP,FGF22 binding,RanGTP-Impb inh,E coli growth
CCOC(=O)C1=CN(Cc2cccc(F)c2)S(=O)(=O)N(C)C1c1ccc2ccccc2c1 (stereo unspecified),-3.7%,-4.1,0.6,-2.2,i,.,0.726
COc1ccc(/C=N/NC(=O)CO/N=C(\C)c2cccs2)cc1,20.5%,.,.,-2.2,.,0.5,.
O=C(NCCc1ccc(C(F)(F)F)cc1)C1CCC(=O)N(CCCN2CCCC2=O)C1 (stereo unspecified),.,-0.4,1.8,-1.3,i,3.6,0.674
CCCOC(=O)c1[nH]c2c(c1C)C(=O)CC(c1cccs1)C2 (stereo unspecified),-3.9%,.,4.5,-1.3,.,1.0,0.692
C=CCOc1c(CNc2nccs2)cccc1OCC,4.0%,.,4.1,-1.9,.,1.5,0.723
O=c1c2cc(N3CCOCC3)ccc2[nH]c(=S)n1Cc1ccc(Cl)cc1,-2.5%,.,-31.8,-2.0,.,-3.2,0.635
NC(CSCc1ccccc1Cl)C(=O)O (stereo unspecified),.,1.6,4.0,-1.0,i,1.6,0.704
Cc1ccc(N2C(N)=NC(N)=NC2(C)C)c(C)c1,2.3%,.,6.5,-3.9,.,-1.1,0.762
COc1ccc(Cc2nnc(-c3cccc(C)c3)o2)cc1OC,2.8%,.,7.6,3.8,.,7.8,0.709
Cc1ccc(CNC(=O)CSc2ccsc2[N+](=O)[O-])cc1,.,-3.2,.,-0.3,i,2.1,.
Fc1c(F)c(-n2nnc3ccccc32)c(F)c(F)c1Cl,-8.8%,2.6,1.7,1.4,i,4.5,0.678
CCn1cc(C(=O)Nc2ccc(C)cc2C)c(=O)c2ccc(C)nc21,-7.8%,.,3.6,.,.,-1.1,0.671
CC(=O)Nc1cccc(NC(=O)CSc2nnc(NC(=O)C3CC3)s2)c1,0.1%,-1.0,-0.3,0.6,i,0.8,0.675
O=C(COC(=O)c1ccc(Br)o1)Nc1ncc(Cl)cc1Cl,8.1%,-0.9,5.3,-4.4,i,0.0,0.686
COc1ccc2oc(=O)c(/C(N)=N/NC(=O)c3ccncc3)cc2c1,.,-13.8,.,5.2,i,-6.3,.
CCCc1cc(=O)[nH]c(SCC(=O)N2CCN(S(=O)(=O)c3ccc(Cl)cc3)CC2)n1,-5.9%,.,1.7,1.1,.,6.0,0.729
C[C@H]1COC(=O)[C@@H](Cc2ccc(F)cc2)C/C=C\C[C@@H](CC(=O)N[C@@H](CO)Cc2ccccc2)C(=O)N1,.,1.3,5.7,-0.8,i,.,.
CC(Sc1ccccc1)C(=O)NN=C1CCCCCCC1 (stereo unspecified),1.6%,-1.2,-1.6,1.3,i,-3.0,0.722
COc1ccc(CN(C)C(=O)C2CCN(C(=O)Nc3ccccc3)CC2)cc1,-3.2%,1.0,0.0,-2.0,i,-0.8,0.67
O=C(COc1ccc(Cl)cc1)OCC(=O)N1CCCC1,-0.5%,.,2.2,-1.1,.,0.6,0.656
COC(=O)C(Cc1ccccc1)N1CCS(=O)(=O)CC1 (stereo unspecified),4.9%,-2.7,-1.3,-1.1,i,-2.8,0.668
CCCCOC(=O)C1=C(C)NC(=O)NC1c1ccccc1 (stereo unspecified),.,-1.9,0.4,5.5,i,2.9,0.68
CCOc1ccc2nc(SCCNS(=O)(=O)c3ccccc3)sc2c1,-17.9%,8.6,0.7,-4.4,i,1.2,0.677
S=C(NCc1ccco1)N/N=C/c1ccncc1,-16.0%,-4.1,.,-1.6,i,-0.4,.
O=[N+]([O-])c1ccc(Oc2cnc3ccccc3n2)cc1,-7.9%,0.6,1.6,0.9,i,1.1,0.718

The listing continues:
SMILES,Vif A3G,MLL AF4-AF9 inh,UCH37 inh,HNF4A DNA FP,FGF22 binding,RanGTP-Impb inh,E coli growth
COc1ccc(-c2noc(N3CCC(C(=O)NCCCN4CC(C)CC(C)C4)CC3)n2)cc1 (stereo unspecified),.,3.3,-0.8,7.0,i,5.1,0.664
Cc1ccc2nccc(C(=O)N3CCCC(Nc4ccc(C)c(C)c4)C3)c2c1 (stereo unspecified),3.7%,7.8,4.0,1.7,i,5.2,0.704
Cc1ccc(CNC(=O)c2csc3c2CCCCC3)cc1,-14.0%,.,0.3,-0.9,.,4.9,0.686
CCc1nnc(NC(=O)c2cc(S(=O)(=O)N3CCCCC3)ccc2N2CCOCC2)s1,-13.2%,-1.5,4.3,1.2,i,?,0.708
C=CCc1c(C)c(C#N)c2nc3ccccc3n2c1N1CCCCC1,?,3.0,-104.1,4.3,i,6.7,0.657
COc1ccc(NC(=O)Cc2coc3cc(C)c(C(C)C)cc23)cc1S(=O)(=O)N1CCOCC1,22.1%,4.7,4.3,2.0,i,?,0.678
COc1ccccc1NC(=S)N(Cc1cccnc1)Cc1ccccc1Cl,-6.3%,1.7,3.1,-1.1,i,-0.3,0.728
CCSc1nc2c(c(=O)[nH]1)C(c1ccc(C)cc1)C1=C(CCCC1=O)N2 (stereo unspecified),-6.4%,0.2,-44.3,2.0,i,0.4,0.712
O=C(/C(N=Nc1cccc([N+](=O)[O-])c1)=C(/O)c1ccc(Br)cc1)C(F)(F)F,8.4%,.,.,-3.6,.,-2.2,.
CCN(CC)C(=O)c1cn(CC)c(=O)c2cc(OC)c(OC)cc12,-3.3%,.,-1.6,0.6,.,1.4,0.703
Cc1nnc(NC(=O)C2CCN(S(=O)(=O)c3cc([N+](=O)[O-])ccc3Cl)CC2)o1,.,2.2,-0.4,2.5,i,.,0.687
CCc1ccc(-c2csc3[n+]2CCN3C(C)=O)cc1,9.9%,-3.8,1.1,-1.0,i,0.7,0.684
COc1cccc(CNC(=O)CN2C(=O)COc3ccc(S(=O)(=O)N4CCOCC4)cc32)c1,10.4%,0.0,3.6,-4.1,i,1.5,0.725
O=C(O)c1ccc(CNC(=O)C23CC4CC(CC(C4)C2)C3)cc1,4.5%,-2.8,3.7,0.7,i,-0.5,0.708
C[C@H](O)C#Cc1ccc2c(c1)O[C@@H](CN(C)C(=O)c1ccncc1)[C@@H](C)CN([C@H](C)CO)S2(=O)=O,.,-1.9&-1.4,.,-3.9,i,.,.
COCCOC(=O)C1=C(C)NC2=C(C(=O)CCC2)C1c1ccc(N(C)C)cc1 (stereo unspecified),.,.,4.9,-0.5,.,?,0.631
O=C(c1ccccc1)c1ccc(OCCOCCN2CCN(Cc3ccccc3)CC2)cc1,17.7%,11.8,-1.3,2.7,i,3.0,0.667
O=C(c1ccccc1)N1CCN(CC(O)COCC2CC=CCC2)CC1 (stereo unspecified),29.1%,.,1.3,0.1,.,2.0,0.7
COc1ccc(C(=O)CSc2nnc(-c3cc(C)cc(C)c3)o2)cc1,-9.1%,-1.8,0.1,8.1,i,-4.3,0.738
c1cc2c(cc1-c1cnc3n1CCC3)OCCO2,-1.7%,6.7,-0.1,-0.7,i,7.1,0.668
CCOC(=O)C1CCCN(S(=O)(=O)c2ccc(S(N)(=O)=O)cc2)C1 (stereo unspecified),2.4%,-0.5,1.0,2.6,i,2.5,0.712
O=C(N/N=C/c1ccccn1)NC12CC3CC(CC(C3)C1)C2,-5.0%,-0.6,.,-1.2,i,-3.3,.
CSc1nc(Cl)c(C#N)c(-c2ccc(C)cc2)n1,2.5%,-1.7,5.3,1.8,i,?,0.663
O=C(c1cnn2c1NC(c1ccc(Br)cc1)CC2C(F)(F)F)N1CCN(C23CC4CC(CC(C4)C2)C3)CC1 (stereo unspecified),.,.,1.3,3.8,.,8.7,0.823
Cc1ccc(C(=O)O/N=C/c2ccc(N(C)C)cc2)cc1,0.2%,0.5,.,-2.4,i,0.9,.

More compounds.
SMILES,Vif A3G,MLL AF4-AF9 inh,UCH37 inh,HNF4A DNA FP,FGF22 binding,RanGTP-Impb inh,E coli growth
CCCn1cc(CN2CCC(Cc3cccc(F)c3)(C(=O)OCC)CC2)c(C)n1,26.6%,2.8,-0.7,1.8,i,-0.2,0.691
OC(c1ccc(Cl)c(Cl)c1)c1ncc(-c2ccccc2Cl)[nH]1 (stereo unspecified),.,-2.2,.,1.6,i,.,.
COc1cccc(OC)c1C(=O)OCCCOC(=O)c1c(OC)cccc1OC,.,1.1,0.1,-0.4,i,0.2,0.74
Clc1ccc(C[n+]2csc3ccccc32)cc1,?,-26.6,5.8,-1.5,i,.,0.644
COc1ccc(CC(=O)Nc2ccc(OC)c(NC(=O)c3ccco3)c2)cc1,-0.8%,.,3.3,-1.9,.,4.4,0.696
O=C(Nc1ncccc1Cl)C1COc2ccccc2O1 (stereo unspecified),-2.2%,.,6.4,-0.7,.,?,0.657
CCOC(=O)CC1CCCCN1C(=O)c1cc(COc2cccc3cnccc23)on1 (stereo unspecified),.,0.3,-64.8,3.2,i,1.5,0.701
Nc1nonc1-c1nc2ccccc2[nH]1,10.2%,.,2.2,0.8,.,-2.2,0.652
COc1ccc(CCNC(=O)C2=COCCO2)cc1,14.4%,.,-0.9,0.8,.,3.1,0.784
O=C(Nc1nc2c(s1)CN(Cc1ccccc1)CC2)c1c(F)cccc1F,3.1%,-2.1,0.1,27.2,i,-1.1,0.685
C=CCn1c(-c2ccccc2OC)n[nH]c1=S,-9.6%,.,4.5,-0.2,.,2.9,0.697
O=C(Nc1nnc(S(=O)(=O)N2CCN(c3ccc(F)cc3)CC2)s1)c1ccco1,10.1%,1.2,2.0,-2.6,i,-0.5,0.704
Cc1ccc(NC(=O)Nc2nnc(-c3ccncc3)s2)cc1C,-0.4%,-1.5,1.3,-11.7,i,1.2,0.606
Cc1cc(NC(=O)CSCC(=O)N(C)Cc2c(F)cccc2Cl)no1,-2.4%,4.7,2.7,-2.1,i,-1.6,0.701
Cc1nn(-c2ccccc2)c(Cl)c1C1C(C#N)=C(N)OC2=C1C(=O)CCC2 (stereo unspecified),8.4%,.,2.0,1.6,.,-1.2,0.711
CCCCNC(=O)CCCCCNS(=O)(=O)c1ccc(OC)cc1,3.8%,.,0.7,1.2,.,.,0.68
CC(C)(C)C(=O)COC(=O)c1cc2ccccc2cc1O,-5.8%,.,-1.2,-0.2,.,0.0,0.702
O=C1Nc2ccccc2C1=Nc1ccc(S(=O)(=O)Nc2nccs2)cc1,18.3%,-0.5,9.3,-8.4,i,-0.7,0.62
Cc1c(NC(=O)CSc2nnc(Nc3ccccc3)s2)c(=O)n(-c2ccccc2)n1C,.,.,2.0,-2.3,.,1.2,0.687
CC(=O)N1CCc2cc(Br)cc(S(=O)(=O)N3CCc4ccccc43)c21,-7.8%,1.5,2.9,-3.0,i,?,0.641
Cc1ccc(NC(=O)c2cncc(Br)c2)c(O)c1,-3.9%,1.1,1.4,0.6,i,5.8,0.617
Cc1cc(Br)ccc1NC(=O)c1ccco1,0.3%,-9.4,6.1,0.1,i,-1.8,0.631
CC(=O)N1CCN(C(=O)c2ccc3oc(CCCc4ccccc4)nc3c2)CC1,.,-0.9,0.6,1.9,i,1.5,0.68
CCOc1cccc(/C=N/NC(=O)c2cc(C3CC3)[nH]n2)c1O,.,1.0,.,1.6,i,1.2,.
COCCNc1nc(NCc2ccccc2)c2cnn(C)c2n1,.,1.0,3.9,0.3,i,5.8,0.713
Cc1ccc(C2C=C(c3ccccc3)Nc3ncnn32)cc1 (stereo unspecified),.,2.1,1.0,-3.9,i,-21.5,.

Not all compounds are listed, so the mix of outcomes need not match the whole.
